VDR inhibitor: blocks the human vitamin D receptor; P11473; VDR-SRC2-3 peptide fluorescence polarization, 2 h; Potency, µM, for inactives: max response, negative = inhibition, most hits filed as inhibitors; 0.93% of 400,000 active; active = well fitted inhibition curve with a large enough effect; inconclusive = small, poorly fitted or top-dose-only effect, or another doubt; inactive = no such curve, though single readings can be large or run the other way; note: series mostly up to about 120 µM
Target sequence (P11473 whole entry, looked up): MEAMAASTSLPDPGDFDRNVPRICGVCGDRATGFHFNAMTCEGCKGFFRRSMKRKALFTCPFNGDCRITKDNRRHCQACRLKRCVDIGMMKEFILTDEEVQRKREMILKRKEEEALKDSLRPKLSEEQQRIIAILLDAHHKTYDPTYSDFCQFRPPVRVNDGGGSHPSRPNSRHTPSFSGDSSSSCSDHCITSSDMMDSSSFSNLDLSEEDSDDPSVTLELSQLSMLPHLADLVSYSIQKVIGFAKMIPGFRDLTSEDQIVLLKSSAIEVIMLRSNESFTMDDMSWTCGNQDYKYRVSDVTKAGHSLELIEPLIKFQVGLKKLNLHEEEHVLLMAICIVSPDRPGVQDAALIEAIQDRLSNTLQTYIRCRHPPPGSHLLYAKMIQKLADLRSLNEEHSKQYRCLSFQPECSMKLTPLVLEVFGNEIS
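Inhibition of the VDR/SRC2-3 peptide interaction is quantified by fluorescence polarization. Compounds (23 nl, pintool) incubate with the reagents for 2 hours at ambient room temperature.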
The depositor's hits bear a star; ? = inconclusive; & = joins results of further samples. % is set by controls: 0 for no effect and ±100 for the full control effect; potency is the fitted concentration of half-maximal effect.

| Molecule | VDR inhibitor |
| --- | --- |
| Cc1ccc(NC(=O)COC(=O)c2ccc(CN3CCCC3=O)cc2)c(Cl)c1 | -12% |
| O=C(CCc1ccc(S(=O)(=O)N2CCOCC2)cc1)NCCCN1CCCC1=O | -7% |
| CCOc1ccc(NC(=O)C2CCC(N3C(=O)C4CC=CCC4C3=O)CC2)cc1 (stereo unspecified) | 19% |
| CCCc1nc2ccccc2c(=O)n1/N=C/c1ccc(O)c(O)c1 | 12% |
| C#CCSc1nc(-c2ccccc2)cc(C(F)(F)F)c1C#N | -8% |
| CC(C)c1nnc(NC(=O)c2ccc3c(c2)OCO3)s1 | 1% |
| O=C(O)CCC(=O)NC(c1ccccc1)c1ccccc1 | -6% |
| NS(=O)(=O)c1ccc(N2C(=O)C3CC=CCC3C2=O)cc1 (stereo unspecified) | 16% |
| CCCNC(=O)COC(=O)/C=C/c1ccc2c(c1)OCO2 | -14% |
| CN(C)CCNC(=S)Nc1ccc(-c2nc3ccccc3[nH]2)cc1 | -22% |
| CCN(CC)S(=O)(=O)c1cccc(NC(=O)COC(=O)CNC(=O)c2cccc(F)c2)c1 | -2% |
| CCOc1ccc(CCNC(=O)c2ccc(C)c(NC3=NC4CS(=O)(=O)CC4S3)c2)cc1 (stereo unspecified) | -14% |
| Cn1c(-c2ccc3c(c2)OCO3)cnc1NCc1cccc(O)c1 | -3% |
| Cc1onc(-c2ccccc2)c1C(=O)NNC(=O)c1ccccc1 | -9% |
| Cc1ccc(NC(=O)[C@@H]2CCCN2S(=O)(=O)c2ccc(Cl)cc2)cc1 | -8% |
| CC1CCC2=C1C[C@H](C(C)(C)O)CC[C@@H]2C (stereo partly specified) | -17% |
| Cc1ccccc1N=Cc1cc2c(cc1O)OC(N)=C(C#N)C2c1ccccc1 (stereo unspecified) | 19% |
| Cc1cccc(NC(=O)CSc2ncc(-c3ccc(Br)cc3)[nH]2)c1 | -6% |
| COc1ccc(OCC(=O)N/N=C2\CCCc3ccccc32)cc1 | 10% |
| O=S1(=O)[C@H]2CC3O[C@]2(C[C@@H]3c2ccc(F)cc2)CN1Cc1ccc(Cl)cc1 | -3% |
| COc1cc(OC)c(NS(=O)(=O)c2cc(-c3cnc(C)o3)ccc2OC)cc1Cl | 5% |
| O=C(COC(=O)c1ccc(C(F)(F)F)cc1)Nc1cccc(S(=O)(=O)N2CCCCC2)c1 | 5% |
| O=C(CSc1nc(O)c(Cc2ccccc2)c(=O)[nH]1)c1ccccc1 | -10% |
| COc1ccc(OCCNC(=O)c2cc(C3CC3)nc3c2cnn3C(C)C)cc1 | -7% |

Sorted by formula weight (descending): part of the list above.
| Molecule | VDR inhibitor |
| --- | --- |
| COc1cc(OC)c(NS(=O)(=O)c2cc(-c3cnc(C)o3)ccc2OC)cc1Cl | 5% |
| O=S1(=O)[C@H]2CC3O[C@]2(C[C@@H]3c2ccc(F)cc2)CN1Cc1ccc(Cl)cc1 | -3% |
| COc1ccc(OCCNC(=O)c2cc(C3CC3)nc3c2cnn3C(C)C)cc1 | -7% |
| Cc1ccccc1N=Cc1cc2c(cc1O)OC(N)=C(C#N)C2c1ccccc1 (stereo unspecified) | 19% |
| COc1ccc(OCC(=O)N/N=C2\CCCc3ccccc32)cc1 | 10% |

More compounds.
| Molecule | VDR inhibitor |
| --- | --- |
| COc1ccccc1C(=O)NCCSCc1ccccc1Cl | -5% |
| CCN1CCN(CCCNC(=O)CS(=O)(=O)Cc2nc(-c3cccc(OC)c3)oc2C)CC1 | -10%&-25% |
| NC(=O)c1cc(Cl)ccc1OCC(=O)Nc1ccc2c(c1)OCO2 | -10% |
| Cc1cccc(Cn2c(=O)n(-c3ccccc3C)c(=O)c3c2c2cc(C)ccc2n3C)c1 | -1% |
| O=C(c1ccc(CS(=O)c2cccc(Cl)c2)o1)N1CCN(C2CCCCC2)CC1 (stereo unspecified) | -4% |
| Cc1ccc(SCCNC(=O)/C=C/c2ccc([N+](=O)[O-])cc2)cc1 | 14% |
| CC(C)Cc1cc(C(=O)Nc2ccc(F)cc2F)no1 | 5% |
| N=c1c2c(-c3ccccc3)c(-c3ccccc3)oc2ncn1Cc1ccco1 | 3% |
| CCN(CC(=O)Nc1ccc2c(c1)OCCO2)C(=O)COc1cc(C)ccc1Cl | -25% |
| CCOC(=O)CC(NC(=O)CCS(=O)(=O)c1ccc2c(c1)n(C)c(=O)c(=O)n2C)c1ccc(C)cc1 (stereo unspecified) | -9% |
| C[C@H](NC(=O)N1CCn2c1nc1ccccc12)C(=O)NC1CCCCC1 | 1% |
| CC(C)c1cccc(-c2ccc3c(c2)S(=O)(=O)c2cccc(C(=O)NC4CCCC4)c2C3=O)c1 | 5% |
| CCOc1ccccc1OCCCC(=O)N1CCN(S(=O)(=O)c2cccc(F)c2)CC1 | 4% |
| N#Cc1c(N2CCN(C(=O)c3ccccc3)CC2)nc(-c2ccccc2)c2c1CCCC2 | -6% |
| COc1cc(CN2c3ccccc3C(=O)CS2(=O)=O)cc(OC)c1 | -5% |
| Cc1ccccc1OCc1nnc(SCCN2CCCC2)n1-c1ccccc1 | 7% |
| CCCCNC(=O)CCn1nc(-c2ccc(C)cc2)c2ccccc2c1=O | 3% |
| Cc1ccc(/C=N/NC(=O)CCn2nc(C)cc2C)c(C)c1 | 3% |
| Cn1c(SCc2c(Cl)cccc2Cl)nc(C(F)(F)F)cc1=O | -4% |
| CCOC(=O)N1CCN(C(=O)COC(=O)c2ccc(S(=O)(=O)N(CC)CC)cc2)CC1 | -4% |
| CCCCOC(=O)CCc1nc2ccccc2[nH]c1=O | 12% |
| CCOC(=O)c1[nH]c2ccc(OC)cc2c1NC(=O)CCN1CCCC(C)C1 (stereo unspecified) | -2% |
| Clc1ccc(C2=NNC(=NCC3CCCO3)SC2)cc1 (stereo unspecified) | ? |
| Cc1cccc(C(=O)NCC(=O)NCCCSc2ccccc2)c1 | 5% |
| O=C(c1cccs1)N(Cc1ccco1)c1ccc(O)cc1 | 0% |
| O=C(CSc1nc(-c2ccccc2Cl)ns1)c1ccc(Cl)cc1 | -12% |
| COc1ccc(-n2nc(C(=O)NCCc3ccc(Cl)cc3)c3c4ccccc4n(C)c3c2=O)cc1Cl | -5% |
| CCOc1ccc(NC(=O)Nc2ccc3nsnc3c2)cc1 | 2% |
| CCSc1nnc([C@H](Cc2c[nH]c3ccccc23)NC(=O)OC(C)(C)C)o1 | 4% |
| Cc1cc(Cl)nc2c(C(C)C)cccc12 | -21% |
| CCC(C)(C(=O)NC1CCCCC1)N(Cc1cccs1)C(=O)CC1NC(=O)NC1=O (stereo unspecified) | -14% |
| O=C(NCC1CCCO1)c1onc(CSc2ccc(F)cc2)c1C(=O)O (stereo unspecified) | -6% |
| O=[N+]([O-])c1cccnc1N1CCOCC1 | -6% |
| CN(C(=O)CSc1ncnc2sccc12)C1CCCCC1 | -5% |
| CCN1CCN(CC(=O)NC2CCCC2)C(=O)C1=O | 5% |
| C/[N+]([O-])=C\CC(=O)c1ccc(-c2ccccc2)cc1 | 1% |
| CC1CC(=S)Nc2ccccc2N1C(=O)Nc1ccccc1 (stereo unspecified) | 13% |
| CCC(=O)N1CCc2cc(S(=O)(=O)NCCC(=O)Nc3ccc(OC)c(OC)c3)ccc21 | 7% |
| Cc1cc(C)c2sc(N(CCN(C)C)C(=O)c3ccc4ccccc4c3)nc2c1 | -17% |
| Cc1cc(C)c2oc(C(=O)Nc3c(C)n(C)n(-c4ccccc4)c3=O)cc(=O)c2c1 | 11% |
| O=C(CN(C(=O)CNC(=O)c1ccco1)c1ccc(Cl)c(Cl)c1)NC1CCCCC1 | -10% |
| Cn1nccc1C(=O)NC(=S)Nc1sc2c(c1C#N)CCCCC2 | -14% |
| COc1cc(O)ccc1C1CC(=O)Nc2c1c(=O)nc(SCc1ccccc1C)n2C (stereo unspecified) | 7% |
| CCOC(=O)c1sc(NC(=O)c2ccccc2OCC)nc1C | -26% |
| Cn1c(NCCCO)nc2c(c1=O)C1(CCCCC1)Cc1ccccc1-2 | -18% |
| CSc1ccccc1C(=O)Nc1ncc(C)s1 | 8% |
| COCc1cc(C)nc2sc(C(=O)Nc3cc(C)ccc3F)c(N)c12 | -4% |
| COc1ccc(C(CNC(=O)c2cccc(S(=O)(=O)N3CCCCC3)c2)N2CCCC2)cc1 (stereo unspecified) | 6% |
| CCCC(=O)OCc1cnc(C)c2oc(=O)c(C(=O)Nc3cccc(C(F)(F)F)c3)cc12 | -4% |
| CCC(=O)c1ccc(OCc2ccc(C(=O)OC)o2)c(OC)c1 | -8% |
| O=C(Nc1ccc(NC(=O)c2sc3ccccc3c2Cl)cc1Cl)c1ccco1 | 9% |
| COCCN(CCOC)S(=O)(=O)c1ccc(C(=O)Nc2ccc([N+](=O)[O-])cc2OC)cc1 | -8% |
| CC(C)CN(CCCNC(=O)c1cn(C)c2ccc(S(=O)(=O)N(C)C3CCCCC3)cc2c1=O)CC(C)C | -3% |
| C=CCc1ccc(OCC(O)COCC)c(OC)c1 (stereo unspecified) | -3% |
| CCn1c(SCC(=O)N(C)C2CCS(=O)(=O)C2)nnc1-c1cccs1 (stereo unspecified) | 0% |
| CCN1CCN(C(=S)Nc2ccccc2Cl)CC1 | 6% |

Continued:
| Molecule | VDR inhibitor |
| --- | --- |
| O=C(CSc1nc2ccc(Cl)cc2[nH]1)NCc1ccco1 | -22% |
| COc1cccc(/C=N\Nc2nncc(-c3ccccc3)n2)c1 | 4% |
| CCOC(=O)c1c(C)cc(C)n2c1nc1ccccc12 | -17% |
| Cc1cc(C(=O)N2CCc3ccccc32)c2cc(F)ccc2n1 | -2% |
| O=C(CSc1nnnn1-c1ccccc1)Nc1ncc2c(n1)CC(c1ccccc1)CC2=O (stereo unspecified) | -11% |
| O=S(=O)(Cc1cccc(C(F)(F)F)c1)c1ncn[nH]1 | -6% |
| CC(C)c1c(C(=O)N/N=C/C2CC=CCC2)nnn1-c1nonc1N (stereo unspecified) | -4% |
| COc1cccc(CN2CC(C(=O)N(C)Cc3ccc(C)cc3)CCC2=O)c1 (stereo unspecified) | 5% |

Two entries from above, field by field.
> COc1cccc(/C=N\Nc2nncc(-c3ccccc3)n2)c1
- VDR inhibitor: 4%
> CCOC(=O)c1c(C)cc(C)n2c1nc1ccccc12
- VDR inhibitor: -17%

Next records.
| Molecule | VDR inhibitor |
| --- | --- |
| COc1ccc(NC(=O)N(C)C[C@H]2Oc3ccc(NC(=O)C4CC4)cc3CC(=O)N([C@@H](C)CO)C[C@@H]2C)cc1 | 1% |
| COc1ccc(-c2noc(C3CCCN(S(=O)(=O)c4ccc(C)c(Cl)c4)C3)n2)cc1OC (stereo unspecified) | -14% |
| O=C(CCCN1C(=O)/C(=C/c2ccccc2Cl)SC1=S)Nc1cccnc1 | -6% |
| CN(Cc1ccco1)c1ncncc1-c1ccc2c(c1)OCO2 | ? |
| Cc1ccc(/C=N/n2c(-c3ccc(Cl)cc3)n[nH]c2=S)s1 | -6% |
| Cc1occc1-c1nnc(SCC(=O)c2ccccc2)n1CC1CCCO1 (stereo unspecified) | 10% |
| COc1cc2c(cc1OC)C(=O)N1[C@H]3c4cc(Cl)ccc4OC[C@@H]3[C@H](c3ccccc3)[C@]1(C)C(=O)N2 | -30% |
| O=C(CSc1ncn[nH]1)Nc1c(Br)cc([N+](=O)[O-])cc1Br | -8% |
| CC(=O)N1CCN(c2ccc(NC(=O)c3ccc([N+](=O)[O-])cc3)cc2)CC1 | -9% |
| COc1ccc(N(C)S(=O)(=O)c2cccc(C(=O)N(C)Cc3ccc(C)o3)c2)cc1 | -7% |
| CCC1CCc2c([nH]c3ccccc3c2=O)O1 (stereo unspecified) | -15% |
| COc1cc(Cl)c(NS(=O)(=O)c2cc(-c3cc(C)no3)ccc2OC)c(OC)c1 | -6% |
| COc1cccc(CN(C(=O)Cc2c[nH]c3ccccc23)C(C(=O)NC2CCCCC2)c2ccc(C)o2)c1 (stereo unspecified) | 4% |
| CSCC[C@H](NC(=O)c1ccc(Cl)c(S(=O)(=O)N2CCCC2)c1)c1nc2ccccc2[nH]1 | 2% |
| Cc1ccc(C(=O)N(Cc2ccc3c(c2)OCO3)Cc2nc3ccccc3c(=O)[nH]2)cc1 | 12% |
| O=C(Oc1ccc(F)cc1)c1cccnc1 | 6% |
| O=C(O)/C=C/c1cccc(NC(=O)c2ccc(Cl)cc2)c1 | -11% |
| CC(C)(C)NC(=O)c1nc2ccccc2s1 | 9% |
| Cc1nc(-c2ccc(Cl)cc2)sc1C(=O)O | 4% |
| O=C(Cn1ccc2ccccc2c1=O)NCC(=O)N1CCCCC1 | -5% |
| CN1CCC(NC(=O)NC2CCCCC2)CC1 | 21% |
| CC(C)c1csc(CN2CCN(Cc3ccc(F)cc3)C(CCO)C2)n1 (stereo unspecified) | -11% |
| NC(=O)/C(=C/c1ccco1)NC(=O)c1ccc(Br)o1 | -6% |
| CCN(C(=O)CSc1nc2ccccc2n1CCc1ccccc1)C1CCS(=O)(=O)C1 (stereo unspecified) | -18% |
| CCOC(=O)c1ccccc1NC(=O)c1nc2nccc(C)n2n1 | 17% |
| CCCCCCNC(=O)CCCCCNS(=O)(=O)c1ccc(Br)cc1 | -3% |
| COC(=O)C(Cc1ccccc1)NC(=O)c1ccc(C)cc1 (stereo unspecified) | -8% |
| CCOC(=O)CCc1c(C)c2ccc(OCc3cc([N+](=O)[O-])ccc3OC)cc2oc1=O | 0% |
| O=C(CN1CCC2(CC1)OCCO2)c1ccc2cc[nH]c2c1 | -9% |
| Cc1sc2nc3n(c(=O)c2c1C)CCCCC3 | 4% |
| COc1cccc(NC(=O)C2c3cc(OC)c(OC)cc3C(=O)N(C)C2c2cccnc2)c1 (stereo unspecified) | 9% |
| Cc1ccc(C)c(CN2C(=O)c3ccccc3S(=O)(=O)c3ccc(C(=O)NCCCN4CCCC(C)C4)cc32)c1 (stereo unspecified) | -4% |
| Cc1cc(C)nc(SCC(=O)c2ccc(Cl)cc2)n1 | ? |
| CCN(C(=O)COC(=O)CNC(=O)c1cccc(C)c1)c1c(N)n(Cc2ccccc2)c(=O)[nH]c1=O | 2% |
| Cc1cc(C)cc(N2CN=C3SCC(=O)N3C2)c1 | -10% |
| C[C@H](CO)N1C[C@H](C)[C@@H](CN(C)C(=O)Nc2ccccc2)Oc2ccc(NC(=O)NC3CCCCC3)cc2C1=O | 0% |

Compound activity: PubChem, National Center for Advancing Translational Sciences (NCATS)

An excerpt; the hit share may differ from the screen's.
